Sa ugtP lethal: growth inhibition of S. aureus ugtP deletion strain. AID 1259309. S. aureus RN4220 ugtP deletion, OD600 growth, 16 h; some inactives read as strong as hits. actives 0.54% (n = 330,000). growth inhibition, % (no concentration beside the values);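 active = z-score under -3 and OD600 up to 0.15 on both plates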;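 also: plate controls were untreated wells for no effect and antibiotic for full effect; wells of about 80 µL received 100 nL stock; the first replicate is given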
Bead autofluor: compound fluorescence in toxin protease inhibitor counterscreen. compound autofluorescence counterscreen, microsphere flow cytometry; hits give high values. fluorescence intensity (no concentration beside the values). actives 3.1% (n = 360,000);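 active = at least 3 SD above the mean of all compounds, about 16000 in these data; inconclusive = too few beads counted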;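 also: 100 nL of 1 mM stock went into each well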
BJeLR viability: BJeLR cell viability loss. BJeLR (HRASV12) viability, CellTiter-Glo ATP luminescence, 48 h; reference of the scale not given here. inhibition, % (concentration not given with the values). actives 0.17% (n = 300,000). AID 1554;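 active = replicate mean above 50%; inconclusive = above 50% but judged a plate artefact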;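 also: 50 nL library stock added to about 25 µL; numbers are from one replicate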
PrP UTR inh: inhibition of PrP 5' UTR reporter expression; cell-based PrP 5' UTR mRNA reporter, plate reader; inhibition, % (test concentration not listed); actives 0.35% (n = 340,000);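 active = every replicate at 50% or more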;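 also: 0 = median of the neutral control wells; tested in H4 reporter cells; numbers are from one replicate; inactives centre near -14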
Mtb hypoxia inh: reduces hypoxia-regulated biosensor signal in M. tuberculosis. M. tuberculosis hypoxia-regulated fluorescent reporter, fluorescence. fluorescence inhibition, % (no concentration beside the values). actives 0.1% (n = 300,000);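 active = 35 to 45% if threefold the growth effect, above 45% if 1.5-fold the growth effect; inactive = the rest, general growth blockers included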;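 also: wells of about 50 µL received 100 nL stock; 0% = vehicle wells and 100% = reference inhibitor wells; whole bacteria with a GFP reporter of the hypoxia response; strong numbers were not always called active; many hits fall short of the cut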
RN4220 kill: S. aureus RN4220 growth inhibition; OD600, 16 h; actives 0.33% (n = 330,000); inhibition, % (concentration not given with the values); AID 1259311;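 active = z-score of -3 or lower and OD600 up to 0.18 on both plates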;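 also: plate controls were untreated cells for no effect and reference antibiotic for full effect; stock transfer was 100 nL into about 80 µL; one replicate is shown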
Mtb hypoxia inh growth: second read-out of Mtb hypoxia inh, no call of its own (marks repeat the call); growth inhibition, %; measured here: M. tuberculosis growth (absorbance);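 0% = vehicle and 100% = reference antibiotic; read after six days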
Numbers without * were called inactive; ? = inconclusive; . = no result given; & = joins results of further samples; ! = a repeat was not active.

1	CC1CCCN(S(=O)(=O)c2ccc(NC(=O)Cc3ccc(S(=O)(=O)N4CCOCC4)s3)cc2)C1 (stereo unspecified)
2	Cc1cc(N2CCC(C(=O)Nc3ccc(F)cc3)CC2)nc(-c2ccccc2)n1
3	COCCCNC(=O)c1ccccc1SC
4	COCCC(=O)N1CCC(Oc2ccc(C(=O)N(C)Cc3cc(C)no3)cc2)CC1
5	COc1ccc(CCNC(=S)Nc2ccccc2)cc1
6	CC(=O)NC(Cc1ccccc1)C(=O)OCC(=O)c1ccccc1 (stereo unspecified)
7	CC1Cc2ccccc2N1S(=O)(=O)c1cccc(C(=O)c2nccn2C)c1 (stereo unspecified)
8	O=S(=O)(c1ccccc1)N1CCC2(CC1)OCCN2S(=O)(=O)c1cccs1
9	Clc1cccc2sc(-c3nnc(-c4ccccc4)o3)c(Cl)c12
10	COC(=O)c1ccc(CN2CCC(Oc3cccc(C(=O)N4CCCC4)c3)CC2)cc1
Assay by compound	1	2	3	4	5	6	7	8	9	10
Sa ugtP lethal	-9.6	-10.9	7.0	6.6	5.2	18.2	-2.5	1.5	-9.7	7.5
Bead autofluor	3766	3867	5227	4928	4205	1840	9183	?	3240	?
BJeLR viability	4.0	5.6	1.5	-2.1	-1.1	9.1	-1.1	-0.3	-7.5	15.8
PrP UTR inh	-34.5	-13.0	-24.3	-31.2	-20.6	0.9	-4.7	-1.2	-83.0	1.5
Mtb hypoxia inh	-5.8	.	9.3	4.7	.	16.1	0.2	-0.1	-0.3	6.9
Mtb hypoxia inh growth	-4.4	.	1.3	1.4	.	7.8	6.0	7.9	7.5	2.9
RN4220 kill	1.1	-9.0	-3.7	4.0	0.9	6.8	3.9	0.3	-10.7	4.0

11	O=S(=O)(Nc1cc2nc3ccccc3nc2n1Cc1ccccc1)c1ccc(Cl)cc1
12	CCc1cccc(CC)c1N(COC)C(=O)Cn1c(C(C)O)nc2ccccc21 (stereo unspecified)
13	NC(=O)c1cc([N+](=O)[O-])ccc1Nc1ccccc1
14	Cn1c(SCC(=O)NCc2ccco2)nnc1-c1ccccc1
15	COc1ccc(C(=O)Nc2ccc(Cl)c(Cl)c2)c(OC)n1
16	CCOC(CC(=O)NNC(=O)c1c(-c2ccccc2Cl)noc1C)OCC
17	N#CCCCc1cc2cc(F)ccc2cn1
18	CSCCC(NC(=O)COc1ccccc1)C(=O)N1CCOCC1 (stereo unspecified)
19	COc1ccc(C=NNC(=O)c2cccnc2)cc1O
20	COc1cc(C=NN=C2NC(=O)C(Cc3ccccc3)S2)ccc1O (stereo unspecified)
Assay by compound	11	12	13	14	15	16	17	18	19	20
Sa ugtP lethal	-16.3	0.4	-1.7	-4.1	-0.1	2.1	-5.6	4.2	12.1	-3.0
Bead autofluor	2849	12374	4100	2544	2495	4711	3450	8716	.	.
BJeLR viability	9.9	-12.5	.	0.4	-0.5	-8.5	.	.	.	.
PrP UTR inh	-20.7	-17.1	-8.3	-8.9	-86.4	-20.5	-20.1	-33.2	.	.
Mtb hypoxia inh	5.5	2.3	1.9	.	25.1	-4.1	3.0	5.0	7.5	1.0
Mtb hypoxia inh growth	2.9	3.8	9.0	.	6.1	-1.7	10.5	-1.8	11.8	9.6
RN4220 kill	-1.9	5.7	0.3	-1.2	-8.5	0.9	-3.3	6.6	-1.7	11.1

21	Cc1[nH]c(=O)c(C(=O)/C=C/c2ccccc2)c2c1CCCC2
22	CS(=O)(=O)N(CC(=O)N1CCC(C(N)=O)CC1)c1ccc(Cl)c(C(F)(F)F)c1
23	COc1cc(CNn2c(C)n[nH]c2=S)cc(Cl)c1OCc1ccc(F)cc1
24	CCCN1C(=O)c2cccc3c(N4CCCCC4)ccc(c23)C1=O
25	O=C(O)CSc1nnc(Cc2ccccc2)n1Cc1ccccc1
26	Cc1cccc(C)c1NC(=O)C1CCCN(CCCc2ccccc2)C1 (stereo unspecified)
27	O=C(NCCCN1CCCC1=O)c1cccnc1
28	CC1CC(=O)Nc2ccccc2N1C(=O)Cn1cnc2ccccc2c1=O (stereo unspecified)
29	CC[C@]12c3[nH]c4ccc(Cl)cc4c3CCN1C(=O)[C@@H](CC(=O)NCC13CC4CC(CC(C4)C1)C3)C[C@@H]2C(=O)N1CCN(C(=O)c2ccco2)CC1
30	CCOCC(=O)Nc1c(C(=O)Nc2ccc(OC)cc2OC)oc2ccccc12
Assay by compound	21	22	23	24	25	26	27	28	29	30
Sa ugtP lethal	1.7	3.8	0.9	5.3	0.7	-3.0	7.7	-2.2	-2.4	-15.0
Bead autofluor	11427	11125	8605	4642	10569	4935	11142	3252	3125	24944*
BJeLR viability	-5.9	3.8	-1.0	3.0	-4.3	.	1.4	.	.	-5.3
PrP UTR inh	.	-18.1	5.0	-67.6	-1.9	-16.9	-9.8	-4.7	1.0	-38.3
Mtb hypoxia inh	7.1	10.7	-0.4	-3.5	1.5	.	5.6	0.2	3.9	5.6
Mtb hypoxia inh growth	10.1	2.8	4.1	-2.2	8.6	.	8.2	0.1	6.1	8.2
RN4220 kill	5.9	2.7	9.4	-0.3	1.0	-0.2	4.0	-1.6	34.6	-1.5

Part of the list above in a different format:
| No. | smiles | Sa ugtP lethal | Bead autofluor | BJeLR viability | PrP UTR inh | Mtb hypoxia inh | Mtb hypoxia inh growth | RN4220 kill |
| --- | --- | --- | --- | --- | --- | --- | --- | --- |
| 30 | CCOCC(=O)Nc1c(C(=O)Nc2ccc(OC)cc2OC)oc2ccccc12 | -15.0 | 24944* | -5.3 | -38.3 | 5.6 | 8.2 | -1.5 |
| 21 | Cc1[nH]c(=O)c(C(=O)/C=C/c2ccccc2)c2c1CCCC2 | 1.7 | 11427 | -5.9 | . | 7.1 | 10.1 | 5.9 |
| 28 | CC1CC(=O)Nc2ccccc2N1C(=O)Cn1cnc2ccccc2c1=O (stereo unspecified) | -2.2 | 3252 | . | -4.7 | 0.2 | 0.1 | -1.6 |

Following part.
31	O=C(NN=Cc1cccs1)c1cc(-c2ccc(Cl)s2)[nH]n1
32	COc1ccc(C(CCN2CCOCC2)c2c(OC)cc(OC)c3ccc(=O)oc23)cc1 (stereo unspecified)
33	Cc1ccccc1OCC(=O)OCC(=O)N1CCCc2ccccc21
34	CC(=O)N(c1ccccc1Cl)S(=O)(=O)c1ccc(Cl)cc1
35	O=C(CNC(=O)c1ccccc1)NCC(c1ccco1)N1CCCC1 (stereo unspecified)
36	Nc1cc(S(=O)(=O)O)cc2ccc(S(=O)(=O)O)cc12
37	CC1(C)CC(NC(=O)CC2CCCCC2)CC(C)(C)N1
38	O=C(NCc1ccc2c(c1)OCO2)c1ccc(N2C(=O)C3CCCCC3C2=O)cc1 (stereo unspecified)
39	O=C(NC(=S)NCCc1ccccn1)c1ccco1
40	C[C@@]12C(=O)N(CCO)CC(=O)N1C(C=Cc1ccccc1)C1C(=O)N(c3ccccc3)C(=O)C12 (stereo partly specified)
Assay by compound	31	32	33	34	35	36	37	38	39	40
Sa ugtP lethal	-6.7	2.9	8.3	-3.8	1.1	-2.1	-2.6	-9.7	9.5	2.9
Bead autofluor	.	2824	5730	7135	4713	3950	2449	3695	4733	.
BJeLR viability	.	.	-8.2	0.3	.	.	-3.8	1.2	3.8	.
PrP UTR inh	.	-73.0	-18.5	-11.2	-11.9	-18.2	-27.8	4.9	-35.0	.
Mtb hypoxia inh	11.3	7.4	-1.6	11.5	0.9	20.7	10.7	.	4.7	5.2
Mtb hypoxia inh growth	-2.3	4.7	6.9	-6.4	4.4	7.5	18.3	.	4.4	9.9
RN4220 kill	-4.9	4.6	4.5	10.9	1.6	1.3	-15.6	-4.8	5.8	1.4

41	Cc1ccc(C)c(S(=O)(=O)NC2CCSC2=O)c1 (stereo unspecified)
42	Cc1cc(N2CCN(C)CC2)nc2ccc(NC(=O)c3ccc(Br)o3)cc12
43	Cc1ccc(C)c(S(=O)(=O)N2CCN(C(=O)Cn3c(C(F)(F)F)nc4ccccc43)CC2)c1
44	Cc1nc(N)[nH]c(=O)c1CCCNS(=O)(=O)c1ccc([N+](=O)[O-])cc1
45	Cc1ccc(C)c(N2CCN(C(=O)CCCN3C(=S)NC(C)(C)CC3C)CC2)c1 (stereo unspecified)
46	CCCOC(=O)/C(=C\C=C\c1ccccc1)NC(=O)c1ccccc1
47	Cn1c(COc2ccccc2)nnc1SCC(=O)Nc1ccc(N2CCOCC2)c(Cl)c1
48	CC1CCCCN1c1nc(-c2ccncc2)nc2ccccc12 (stereo unspecified)
49	Cc1ccc(S(=O)(=O)N/N=C\c2ccc3c(c2)OCO3)cc1
50	O=C(CN1CCN(CC(=O)Nc2ccccc2Cc2ccccc2)CC1)Nc1ccccc1Cl
Assay by compound	41	42	43	44	45	46	47	48	49	50
Sa ugtP lethal	4.7	8.0	13.8	0.1	9.6	-0.8	-8.2	13.1	.	-4.6
Bead autofluor	5490	4146	2617	3690	7951	3566	17200*	3267	10822	3609
BJeLR viability	.	1.9	-11.0	.	4.9	0.1	-13.4	6.2	8.4	-13.8
PrP UTR inh	-8.3	-28.8	-13.2	-19.6	-26.5	-16.1	-10.8	-12.2	-12.5	-38.7
Mtb hypoxia inh	0.4	5.2	11.4	0.8	4.0	-5.3	-0.1	7.0	.	6.7
Mtb hypoxia inh growth	2.0	5.7	7.8	3.8	0.1	1.6	5.0	3.4	.	0.6
RN4220 kill	3.3	8.2	9.1	-0.8	3.3	9.9	5.6	7.1	.	5.2

51	COCCCN(Cc1ccco1)C(=O)Cn1ncc2c(=O)oc3ccc(C)cc3c21
52	O=C(NCc1cccnc1)C(=O)NCC1OCCN1S(=O)(=O)c1ccccc1 (stereo unspecified)
53	COc1cc2c(cc1OC)CN(Cc1cccs1)CC2
54	COc1ccc(NC(=O)CNC(c2ccccc2)c2ccccc2)cc1Cl
55	CCN(CC)S(=O)(=O)c1ccc(O)c(C(=O)OCC(=O)Nc2cc(C)c(C)cc2[N+](=O)[O-])c1
56	Cc1ccc2c(c1)N(CC(=O)NC(C)CCc1ccccc1)C(=O)c1cccnc1O2 (stereo unspecified)
57	FC(F)(F)c1cc(CCN2C(=S)NCC2Cc2ccccc2)cc(C(F)(F)F)c1 (stereo unspecified)
58	COc1ccc(N2C(=O)/C(=C/c3ccc([N+](=O)[O-])cc3)C=C2c2ccccc2)cc1
59	O=C(O)CCC(=NNc1ncc(C(F)(F)F)cc1Cl)C(=O)O
60	Cc1cccc(C)c1NC(=S)NN1CCN(C)CC1
Assay by compound	51	52	53	54	55	56	57	58	59	60
Sa ugtP lethal	-1.3	4.4	-3.5	47.9	5.2	-4.5	6.4	4.2	5.4	5.6
Bead autofluor	4504	4509	13511	4121	4508	6197	.	7385	.	4160
BJeLR viability	3.6	2.3	-3.8	-2.3	-8.6	-12.7	.	1.2	.	4.8
PrP UTR inh	5.5	-20.2	-9.6	-36.9	-11.1	4.5	.	1.7	.	-11.1
Mtb hypoxia inh	11.1	8.9	0.6	3.2	-2.6	.	-5.2	5.2	3.4	.
Mtb hypoxia inh growth	5.7	7.1	-0.6	-1.3	1.1	.	-5.2	0.3	-0.5	.
RN4220 kill	5.5	-4.9	-2.3	1.0	10.8	-5.1	-3.8	-5.7	4.7	1.9

61	O=C(COc1ccc(Cl)cc1Br)NC1CC1
62	CC(C)(C)CN1C(=O)C(=O)NCC1Cc1ccc(O)cc1 (stereo unspecified)
63	Cc1cc(C)c(C#N)c(SCC(=O)Nc2c(C)n(C)n(-c3ccccc3)c2=O)n1
64	Cc1ccc(NC(=O)COc2ccccc2)c(NC(=O)c2ccccc2C)c1
Assay by compound	61	62	63	64
Sa ugtP lethal	6.7	98.1*!	2.4	2.5
Bead autofluor	6178	.	3304	3253
BJeLR viability	.	.	.	-13.8
PrP UTR inh	-30.3	.	-29.0	-16.5
Mtb hypoxia inh	13.2	7.2&1.0	6.1	13.9
Mtb hypoxia inh growth	0.2	2.2&8.5	6.1	6.7
RN4220 kill	7.9	96.7*!	2.4	7.7

Given as a markdown table: entries from further up.
| item | SMILES | Sa ugtP lethal | Bead autofluor | BJeLR viability | PrP UTR inh | Mtb hypoxia inh | Mtb hypoxia inh growth | RN4220 kill |
| --- | --- | --- | --- | --- | --- | --- | --- | --- |
| 61 | O=C(COc1ccc(Cl)cc1Br)NC1CC1 | 6.7 | 6178 | . | -30.3 | 13.2 | 0.2 | 7.9 |
| 64 | Cc1ccc(NC(=O)COc2ccccc2)c(NC(=O)c2ccccc2C)c1 | 2.5 | 3253 | -13.8 | -16.5 | 13.9 | 6.7 | 7.7 |
| 62 | CC(C)(C)CN1C(=O)C(=O)NCC1Cc1ccc(O)cc1 (stereo unspecified) | 98.1*! | . | . | . | 7.2&1.0 | 2.2&8.5 | 96.7*! |

Bioassay records: PubChem BioAssay, several laboratories
